SmPrx2 inh: Schistosoma mansoni Prx2 inhibition. S. mansoni Prx2 activity coupled to TGR/GSH (TGR is thioredoxin glutathione reductase), NADPH fluorescence loss, qHTS; some inactives read as strong as hits. Potency, µM. actives 0.07% (n = 65,000). AID 448; active means full or partial inhibition curve with a strong effect at the top dose; inconclusive means weaker partial or single-point curve; inactive means no accepted curve; also: series up to 57 µM; many of its hits are not listed in these tables
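Coupled assay in which S. mansoni TGR passes NADPH reducing equivalents via glutathione to Prx2, which reduces H2O2. Compounds were preincubated 15 min at room temperature with 25 nM TGR/50 nM Prx2 mix. Kinetic NADPH fluorescence loss (ex 365/em 450 nm) was monitored.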
LT uptake inh: blocks cellular internalization of anthrax lethal toxin; Cells, anthrax lethal toxin internalization, FRET ratio (460/530); Potency, µM (titrated, usually from 40 µM), for the others: at the top dose activity change, negative = inhibition, usual class: inhibitors; actives 0.67% (n = 70,000); AID 912; active = well fitted falling ratio curve with the 530 nm signal flat; inconclusive = other ratio curves, or a change in one channel alone; inactive = flat curves in the ratio and both channels; the % refers to the ratio; also: % is scaled to controls: 0 for no effect and ±100 for the full control effect; nearly all actives have a fitted effect of over 50% in size; tested in ME-180 cells; beta-lactamase reporter
* = called active by the depositor; ? = inconclusive; . = no result given; & = joins results of further samples; [ ] = another dose, or the depositor's remark. Potency is read from the fitted curve at half-maximal effect. Not all compounds are listed; rates above refer to the full screens.

SMILES	SmPrx2 inh	LT uptake inh
CC(C)COc1ccc(-c2nnc(-c3ccco3)o2)cc1	>57	?
Cc1ccc2[nH]c(=O)c(-c3nc4cc(C)ccn4c3NCc3ccco3)cc2c1	>57	-4%
CCN(CC(=O)Nc1cccc(OC)c1)C(=O)C1CCN(C(=O)Nc2ccccc2)CC1	>57	6%
CCn1c(SCC(=O)c2c[nH]c3ccccc23)nnc1-c1cccs1	>57	-10%
CCCC(=O)NC(C)c1nc2ccccc2n1C (configuration not stated)	>57	2%
CN(C)c1ccc(CN(C(=O)C2COc3ccccc3O2)C2CCS(=O)(=O)C2)cc1 (configuration not stated)	>57	-1%
Cc1cc2c(nc1C)CCCN2C[C@H](C)O/N=C1/[C@H]2O[C@@H]2[C@@H](O)[C@H]2[C@H]1CCn1c(=O)n(-c3ccccc3)c(=O)n12	.	-4%[8 µM]
O=C(Nc1cc(C(F)(F)F)ccc1Cl)C1CCN(c2nnc(-n3cccc3)s2)CC1	>57	-24%
COc1ccc(Cl)cc1C(=O)N(Cc1nc(-c2cccc(C)c2)no1)C(C)C	>57	?
CCOc1ccccc1C1C(C(=O)Nc2ccc(OC)cc2)=C(C)Nc2nc(CCCO)nn21 (configuration not stated)	>57	-6%
COCCN(CCOC)Cc1cc(=O)oc2cc3c(cc12)CCC3	>57	.
COCCN1CC(=O)N(c2cccc(C)c2C)C(c2ccc(Cl)cc2)C1=O (configuration not stated)	>57	-4%
COc1ccccc1NC(=O)C1=C(C)Nc2nnnn2C1c1ccccc1OC (configuration not stated)	>57	-2%
CCOc1ccc(OCC)c(NC(=O)C2CCN(S(=O)(=O)c3cccc4nonc34)CC2)c1	>57	0%
Cc1cc(C(F)(F)F)nn1CC(=O)N1CCCCC1C (configuration not stated)	>57	-1%
Cc1nc2nc(Cc3ccccc3)nn2c(C)c1Cl	>57	0%
O=C(C1CCCN(c2ncccn2)C1)N1CCc2ccccc21 (configuration not stated)	>57	-1%
COc1ccc(CC(=O)N2CCN=C2SC)cc1	>57	-8%
Clc1ccc(Cn2ncc3c(N4CCCC4)ncnc32)cc1	>57	3%
O=C(NCCN1CCOCC1)c1cccc(S(=O)(=O)N2CCCCCC2)c1	>57	6%
CC1CCN(CC(C)OC(=O)c2ccc3c(c2)OCCO3)CC1 (configuration not stated)	>57	-7%
Cc1nc2ccccc2n1CC(=O)OCC(=O)Nc1ccc2c(c1)OCCO2	>57	-6%
O=C(Cn1cc(C(=O)c2cccs2)c2ccccc21)NCc1cccs1	>57	-20%
CCOCCCNC(=O)C1CCCN1C(=O)NC1CCCCC1 (configuration not stated)	>57	-4%
CC(C)(C)C(=O)CNS(=O)(=O)c1ccc(S(=O)(=O)NC2CCCC2)cc1	>57	0%
COc1cccc(C2CC(c3ccccc3)n3ncnc3N2)c1 (configuration not stated)	.	-6%
O=S(=O)(NCCc1ccc2c(c1)OCCO2)c1cccs1	>57	8%
CC1CCN(C(=O)Cn2c(=O)n(Cc3ccc4c(c3)OCO4)c(=O)c3ccccc32)CC1	>57	?
CCCCCCn1ccc(=N)cc1	>57	?
COc1cccc(NS(=O)(=O)c2cn(C)c(=O)n(C)c2=O)c1	>57	12%
CC(C)(O/N=C(\C(=O)N[C@@H]1C(=O)N2C(C(=O)[O-])=C(C[n+]3ccccc3)CS[C@@H]12)c1csc(N)n1)C(=O)O	>57	-4%[3.58 µM]
Cc1ccc(OCCCn2c(CO)nc3ccccc32)cc1	>57	-9%
O=C1CC(N2CCN(c3ccccc3)CC2)C(=O)N1CCc1ccccc1 (configuration not stated)	.	-13%
CC(C)C(=O)N(Cc1ccc2c(c1)OCO2)Cc1ccccn1	>57	6%
CCCCC(CC)CNC(=O)c1cccs1 (configuration not stated)	.	-12%
Cn1c(NC(=O)c2cccs2)c(-c2cccs2)c(=O)c2ccccc21	>57	?
CCOC(=O)c1c(C)[nH]c(C(=O)Cn2nnc(-c3ccccc3)n2)c1C	>57	0%
COc1ccc(COC(=O)N/N=C2/C[C@@H](O)[C@@H](O)[C@@H]3[C@@H]4C(=O)N(C[C@@H]5CCCO5)C(=O)[C@H]4CC[C@H]23)cc1	.	?
NN(CC(=O)O)CC(=O)O	>57	0%[8 µM]
O=C1Nc2ccc(S(=O)(=O)NCc3ccco3)c3cccc1c23	>57	10%
Clc1ccc(-c2nnc3sc(-c4ccco4)nn23)c(Cl)c1	>57	11%
O=C1C2CCCN2C(c2ccncc2)N1c1ccc(Cl)c(Cl)c1 (configuration not stated)	>57	-2%
COc1cccc(N2CCN(C(=O)CN(C)S(=O)(=O)c3ccc4c(c3)CCC(=O)N4)CC2)c1	>57	-4%
Cc1cc(NC(=O)CSc2nc(CCC3CCCC3)nc3ccccc23)no1	>57	?
CC(=O)c1cccc(N(CC(=O)N2CCOCC2)S(C)(=O)=O)c1	>57	9%
CCOc1cc(S(=O)(=O)N2CCCCC2)ccc1Cl	>57	-18%
Cc1ccc(S(=O)(=O)C(F)(F)F)cc1NC(=O)c1cccnc1	>57	5%
O=C(Cc1cc(=O)[nH]c(=O)[nH]1)N1CCN(C(=O)c2ccco2)CC1	>57	8%
CCc1ccc2c(c1)C(NC(C)=O)C(=O)N2CC (configuration not stated)	>57	-6%
COc1ccc(Oc2c(C)oc3c(CN(C)C)c(O)ccc3c2=O)cc1	>57	.
O=C(NCC1CCCO1)C1c2ccccc2C(=O)N1C1CCCCCCC1 (configuration not stated)	>57	11%
CCS(=O)(=O)n1nc(-c2ccco2)nc1SC	?	-7%
N#C/C(=C\c1ccc(O)c(O)c1)C(=O)NCCc1ccccc1	>57	?
COC(=O)c1ccc(C)c(NC(=O)c2nn(C)c(=O)c3ccccc23)c1	>57	4%
N#Cc1ccsc1NC(=O)c1cnccn1	>57	0%
Clc1ccc2c(NC3CCC(N4CCCCC4)CC3)ccnc2c1 (configuration not stated)	>57	2.5µM*
CO[C@H]1[C@H](O[C@H]2O[C@@H](C)[C@@H](O[C@@H]3C[C@](C)(O)[C@H](O)[C@H](C)O3)[C@@H](N(C)C)[C@@H]2O)[C@@H](CC=O)C[C@@H](C)[C@@H](O[C@H]2CC[C@H](N(C)C)[C@H](C)O2)/C=C\C=C/C[C@@H](C)OC(=O)C[C@H]1O	>57	0%[3.58 µM]
N#CCCn1c(=O)c(-c2cc(F)cc(F)c2)nc2cnc(Oc3ccccc3)nc21	>57	-8%
O=C1OC(c2ccccc2)=C/C1=C\N1CCOCC1	>57	16%
C=CCn1c(SCC(=O)Nc2nccs2)nnc1-c1cc2cccc(OC)c2o1	.	7%

(further entries)
SMILES	SmPrx2 inh	LT uptake inh
c1ccc(OCCCn2nnc(-c3cccnc3)n2)cc1	>57	6%
NCCC[C@@H](CC(=O)N[C@@H]1CCNC[C@H]1C(=O)N[C@H](CC(=O)N[C@@H](CCC(=O)O)CC(=O)O)Cc1ccccc1)NC(=O)C[C@H](Cc1c[nH]c2ccccc12)NC(=O)[C@@H]1CNCC[C@H]1N	>57	-1%
COc1ccc(C(C)=O)cc1CN1C(=O)C(C)N(c2ccc(C)cc2)C1=O (configuration not stated)	>57	0%
c1coc(Cn2c(SCc3nc4ccccc4[nH]3)nnc2-c2cccs2)c1	>57	-6%
CC(=O)C1=C(O)C(=O)N(CCN2CCOCC2)C1c1ccccc1 (configuration not stated)	>57	2%
CCCCOc1cccc(C(=O)N(Cc2ccco2)C2CCS(=O)(=O)C2)c1 (configuration not stated)	>57	.
O=C(NCc1cccc(CNC(=O)c2ccco2)c1)c1ccco1	>57	-5%
COc1ccc(-c2cc(C(F)F)nc(-n3nc(C)cc3C)n2)cc1	>57	-11%
CCOC(=O)c1cnn2c(C(F)(F)F)cc(-c3ccccc3)nc12	.	-24%
COCn1c2ccccc2c2nnc(C(C)=O)nc21	.	?
CCC1(C)Cc2ccccc2-c2nc3n(c(=O)c21)CCCCC3 (configuration not stated)	>57	-7%
CCCN1CCN(CCCNC(=O)c2cc3c(=O)n(C)c4ccccc4c3n2C)CC1	>57	13µM*
COC(=O)c1cc(Br)c(=O)n(-c2ccccc2OC)c1	>57	2%
CCN1CCN(C(=O)C2c3cc(OC)c(OC)cc3C(=O)N3CCc4ccccc4C23)CC1 (configuration not stated)	>57	-4%
COC(=O)CSc1nc2ccccc2nc1SCC(=O)OC	>57	?
Cc1cc(C)n(-c2ccc(C(=O)Nc3nc4ccccc4s3)cc2)n1	>57	-18%
c1cc(OCC2CO2)cc(OCC2CO2)c1 (configuration not stated)	.	?
Cc1cccc2cc(CN(Cc3ccco3)S(=O)(=O)c3ccc4c(c3)OCCO4)c(=O)[nH]c12	>57	0%
Cc1ccc2ncnc(NCCCN3CCOCC3)c2c1	>57	1%
CCOC(=O)N1CCC(c2cc(=O)n3[nH]c(-c4ccccc4)cc3n2)CC1	>57	-1%
Cc1cc(C)nc(SCC(=O)Nc2ccc(N3CCOCC3)c(Cl)c2)n1	>57	-11%
O=C(NCCCN1CCCC1=O)c1ccc(CNS(=O)(=O)c2ccc(F)cc2)cc1	>57	7%
Cn1cccc1C(=O)N1CCC2(CC1)CCN(c1ccccn1)CC2	>57	-10%
CCOC(=O)C1CCCN(C(=O)c2ccc3c(c2)OCO3)C1 (configuration not stated)	>57	9%
O=C(O)C1CCCCC1C(=O)NCCc1cccc(Cl)c1 (configuration not stated)	>57	-5%
CC1=CC(C)C(C(=O)O)C(C(=O)O)C1 (configuration not stated)	.	6%
CC1(C)CC(NS(=O)(=O)c2ccccc2)CC(C)(C)N1	>57	2%
COc1ccccc1CNC(=O)C1CCCN(S(=O)(=O)c2cnc[nH]2)C1 (configuration not stated)	>57	0%
CC(C)CCN(C)C1CCN(S(=O)(=O)c2ccc(F)cc2)CC1	>57	-25%
Cn1c(C(=O)NCc2ccc3c(c2)OCO3)cc2sccc21	>57	-8%
Cn1c2ccccc2c2cnn(CC(=O)N3CCN(c4ncccn4)CC3)c(=O)c21	>57	-24%
COC(=O)C1C2C=CC3(CN(C4CCCC4)C(=O)C13)O2 (configuration not stated)	>57	12%
CCOC(=O)C1=C(C)N2C(=C(C#N)[C@@H]1c1ccc(C(=O)OC)cc1)SC[C@@]2(O)C(C)(C)C	>57	-9%
COc1ccc(CNc2ccc3cn[nH]c3c2)c(OC)c1OC	.	-8%
O=C(CN1CCN(Cc2ccccc2)CC1)c1c[nH]c2ccccc12	>57	.
O=S1(=O)NC(=NCc2ccccc2)c2ccccc21	>57	11%
Cc1cc(Cl)ccc1OCCCC(=O)NC1CCN(C)CC1	>57	?
CCC(CC)NC(=O)c1n[nH]c(=O)c2ccccc12	>57	3%
CCCn1c(=O)[nH]c(=O)c2[nH]cnc21	>57	-1%
CC1Cc2nc(SCC(=O)NCc3ccco3)n(-c3ccccc3)c(=O)c2S1 (configuration not stated)	>57	1%
COc1ccc(/C=N/n2cc(-c3ccccc3)nc2N)cc1	>57	?
O=C1c2ccccc2C(Nc2ccc(F)c(Cl)c2)N1c1ccccn1 (configuration not stated)	>57	-17%
c1c2c(cc3sc(N4CCCCC4)nc13)OCO2	>57	.
COc1ccccc1NC(=O)COc1ccc(C(=O)OCC(=O)N2CCCC2=O)cc1OC	>57	-7%
CC(C(=O)NCC1CCCO1)N(C(=O)c1snc(C(N)=O)c1N)c1cccc(F)c1 (configuration not stated)	>57	2%
Cc1nc2cnc(Oc3ccccc3)nc2n(C)c1=O	>57	-1%
O=C(Oc1ccccc1C(=O)N1CCOCC1)c1ccccc1	>57	7%
CC(=O)c1cccc(NS(=O)(=O)N2CCCCC2)c1	>57	13%
CN1CCN(c2ccc3ccccc3n2)CC1	>57&>57	-6%&0%
O=C(Nc1nncs1)Oc1ccccc1	>57	-7%
CC1CCN(C(=O)C2CCC(CNS(=O)(=O)c3cccc4cccnc34)CC2)CC1 (configuration not stated)	>57	-3%
Nn1c(Nc2ccccc2)nc2ccccc21	.	9%
COc1ccc(N(C)C(=O)CCS(=O)(=O)c2cccc3nonc23)cc1	>57	-6%
CCOC(=O)c1c(C)[nH]c(C(=O)COC(=O)c2ccncc2)c1C	>57	4%

Screening data (PubChem)
